Screening results as filed in PubChem.
E coli growth – blocks Escherichia coli growth; actives 0.21% (n = 330,000); OD600, 23 h; active compounds read low; OD600 absorbance (concentration not given with the values); AID 1053175;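 active = OD600 absorbance below the run mean of sample wells minus 3.6 SD, in any replicate, cut at about 0.56 in these data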;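 also: stock transfer was 300 nL into about 60 µL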
UCH37 inh – inhibitors of human deubiquitinating enzyme UCH37; purified proteasome/UCH37, Ub-AMC cleavage fluorescence; inhibition, % (concentration not given with the values); actives 0.33% (n = 330,000); AID 588478;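 active = mean of two replicates above 20%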;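 also: 0% = compound-free wells with enzyme and 100% = wells lacking proteasome; stock transfer was 100 nL into about 20 µL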
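Test system – human UCH37 enzyme supplied as purified proteasome complex · Incubation – 30 min preincubation with enzyme, 25 min cleavage at room temperature · Detection – AMC fluorescence from Ub-AMC cleavage, excitation 355 nm, emission 460 nm · Benchmarks – no-proteasome wells (full inhibition) and compound-free wells (no inhibition)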
HNF4A DNA FP – change in binding of human HNF4 alpha to DNA; P41235; HNF4a-FITC DNA binding, fluorescence polarization, 1 h; activity change, % at 10 µM; actives 0.3% (n = 360,000); in the data active = activity change above about 30%, passing the limit was not always enough;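 also: controls were the assay level and a saturating level of protein; the project sought stronger binding though the title names inhibitors; some compounds called inactive have numbers as strong as hits; positive values seem to mean higher polarization but the record does not say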
Target sequence (P41235 whole entry, looked up): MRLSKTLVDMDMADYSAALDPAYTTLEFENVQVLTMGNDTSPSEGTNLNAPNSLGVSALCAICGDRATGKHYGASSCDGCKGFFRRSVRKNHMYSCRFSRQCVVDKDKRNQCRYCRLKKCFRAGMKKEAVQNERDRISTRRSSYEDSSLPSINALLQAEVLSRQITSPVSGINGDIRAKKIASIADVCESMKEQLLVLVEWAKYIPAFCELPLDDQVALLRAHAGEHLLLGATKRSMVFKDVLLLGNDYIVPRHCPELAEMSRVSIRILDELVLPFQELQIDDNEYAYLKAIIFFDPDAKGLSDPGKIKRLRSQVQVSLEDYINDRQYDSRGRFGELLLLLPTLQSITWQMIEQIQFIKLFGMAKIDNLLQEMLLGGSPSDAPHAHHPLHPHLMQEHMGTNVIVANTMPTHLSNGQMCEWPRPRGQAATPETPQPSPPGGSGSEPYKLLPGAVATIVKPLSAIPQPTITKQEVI
Vif TR-FRET – HIV-1 Vif–A3G interaction blockers – biochemical, TR-FRET, GST-Vif 1-94, biotin-A3G peptide, dose response retest, primary screen (AID 1117319) | actives 0.57% (n = 260,000) | TR-FRET GST-Vif / biotin-A3G peptide binding; higher % means a stronger effect; test concentration not given here; strong numbers were not always called active | inhibition, %, or IC50 in µM where a hit was titrated;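 active = above the screen mean plus three standard deviations and confirmed in dose response; inconclusive = results disagree or hit not tested in dose response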;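 also: Vif residues 1-94 fused to GST binding biotinylated APOBEC3G peptide 110-148; 0% = full assay without inhibitor and 100% = GST in place of GST-Vif; retest series ran down from 100 µM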
RanGTP-Imp inh – inhibitors of RanGTP-importin-beta interaction, primary screen, biochemical, FRET, CFP-Ran, YFP-importin-beta, homogeneous. AID 2216. cell-free CFP-Ran/YFP-importin-beta FRET ratio. actives 1.1% (n = 300,000). inhibition, % (no concentration beside the values);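 active = most replicates above 15%; inconclusive = exactly half above 15%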;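 also: 0% = DMSO wells and 100% = Ran loaded with GDP instead of GTP; wells of about 40 µL received 100 nL stock; the first replicate is given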
AF4-AF9 inh – MLL-AF4/AF9 protein interaction inhibition. AlphaScreen, biotin-AF4 peptide binding to FLAG-AF9. inhibition, % at 10 µM. P42568. actives 0.47% (n = 350,000);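 active = every replicate reaching a set inhibition limit, whatever the replicate mean, cut at about 25% in these data; inconclusive = mean inhibition reaches that limit but some replicates miss it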;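 also: 0% = plate neutral control median and 100% = total signal loss; the record names both 10 and 1 µM as test concentration; the first replicate is given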
Target sequence (P42568 whole entry, looked up): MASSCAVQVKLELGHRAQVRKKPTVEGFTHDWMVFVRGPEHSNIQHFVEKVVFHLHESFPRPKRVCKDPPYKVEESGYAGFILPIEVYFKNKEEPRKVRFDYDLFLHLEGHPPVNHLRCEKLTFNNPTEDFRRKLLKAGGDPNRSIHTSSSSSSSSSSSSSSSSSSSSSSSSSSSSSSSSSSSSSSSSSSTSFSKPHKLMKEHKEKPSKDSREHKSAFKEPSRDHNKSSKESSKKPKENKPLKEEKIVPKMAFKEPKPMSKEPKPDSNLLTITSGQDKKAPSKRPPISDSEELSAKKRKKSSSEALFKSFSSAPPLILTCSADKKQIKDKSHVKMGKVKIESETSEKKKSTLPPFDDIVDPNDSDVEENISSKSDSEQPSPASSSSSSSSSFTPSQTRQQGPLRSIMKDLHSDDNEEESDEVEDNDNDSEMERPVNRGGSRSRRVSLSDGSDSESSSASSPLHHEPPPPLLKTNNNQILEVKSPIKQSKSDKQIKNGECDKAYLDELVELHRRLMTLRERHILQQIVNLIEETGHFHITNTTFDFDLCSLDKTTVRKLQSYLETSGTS
FGF22 binding – binders of recombinant human FGF22 by thermal shift; Q9HCT0; SYPRO orange fluorescence; percent of sucrose octasulfate shift, DMSO zero; calls only at 9.99 µM; actives 1.5% (n = 340,000); AID 651658;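 active = melting point raised past a set limit in the mean and every replicate; inconclusive = no clear call; three in four hits are not shown here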
The depositor's hits bear a star; i = inactive; ? = inconclusive; / = no result given.

E coli growth | UCH37 inh | HNF4A DNA FP | Vif TR-FRET | RanGTP-Imp inh | AF4-AF9 inh | FGF22 binding | Compound
0.724 | -8.6 | -3.1 | -7.2% | 10.4 | / | / | Cc1ccc(-c2nn3c(C)nnc3s2)cc1NC(=O)c1ccc(-c2cccc(Cl)c2)o1
0.689 | 0.3 | 1.6 | 0.4% | 3.1 | / | / | O=C(NCc1ccco1)C1CC(=O)N(c2ccc(F)cc2)C1 (centres undefined)
0.686 | -0.7 | -4.7 | / | / | 0.7 | i | CCCN(C(=O)C(NC(=O)c1ccccc1)C(C)C)c1c(N)n(Cc2ccccc2)c(=O)[nH]c1=O (centres undefined)
0.692 | 5.7 | 6.0 | 3.8% | 2.2 | / | / | CCCNS(=O)(=O)c1ccc(OCC(=O)NCc2ccco2)cc1
0.658 | 5.1 | 4.0 | / | 1.3 | 9.5 | i | CCNc1nc(C23CC4CC(CC(C4)C2)C3)cs1
/ | / | -1.9 | 3.0% | / | 4.3 | i | Cc1ccc([C@@H]2CC(=O)[C@@H]3CN(S(=O)(=O)c4ccc(C)cc4)[C@H](c4cccc(Cl)c4)C[C@@H]3N2S(=O)(=O)c2ccc(Cl)cc2)cc1
0.708 | 1.9 | -0.4 | -2.3% | -4.2 | -2.3 | i | O=C(CSc1nc(=O)n2ccccc2n1)N1CCC(Cc2ccccc2)CC1
0.678 | 1.2 | 0.7 | / | -0.6 | -2.2 | i | Cc1ccccc1NC(=O)CCNS(=O)(=O)c1cccc2nsnc12
0.619 | 1.4 | 1.6 | 19.0% | ? | / | / | CCc1oc(C(=O)O)cc1CN(CC)CC
0.704 | 1.6 | 2.8 | 1.7% | -1.1 | -6.4 | i | COc1ccc(NS(=O)(=O)c2cccc(C(=O)NCC3CCCO3)c2)cc1 (centres undefined)
/ | / | 0.4 | / | 2.7 | -6.2 | i | CN(C)S(=O)(=O)c1ccc(Cl)c(NC(=O)CN2C(=O)NC(C)(C3CC3)C2=O)c1 (centres undefined)
/ | / | 5.1 | / | 0.4 | 0.4 | i | Cc1ccc(N(C(=O)c2csnn2)C(C(=O)NC2CCCCC2)c2ccccn2)c(C)c1 (centres undefined)
0.698 | 4.5 | 4.2 | -11.5% | / | -0.7 | i | Cc1ccc(NC(=O)CNNC(=O)c2cccc([N+](=O)[O-])c2)cc1[N+](=O)[O-]
0.691 | 1.4 | -0.1 | / | 1.3 | 3.0 | i | O=C(Nc1c[nH]c2c(Cl)cccc2c1=O)N1CCN(c2ccccn2)CC1
/ | / | 3.0 | / | / | -0.8 | i | O=C1Nc2cnc(Cl)nc2Nc2ccccc21
0.719 | 1.1 | -4.6 | ? | ? | 1.0 | i | CC(=O)Nc1ccc(S(=O)(=O)N(C)c2ccc(OCC(=O)OCC(=O)N3CCCCC3)cc2)cc1
0.646 | 3.6 | 4.1 | 2.3% | 2.7 | -12.8 | i | COc1cc(OC)c(OC)cc1CNCc1ccco1
0.743 | 1.1 | -1.2 | 1.1% | -2.8 | / | / | CC1CCCC(N2C(=O)NC(NC(=O)c3ccco3)(C(F)(F)F)C2=O)C1C (centres undefined)
0.596 | -414.6 | -2.1 | -6.7% | -1.1 | -12.7 | i | CCCN1C(=O)c2ccccc2NC1c1ccc(Cl)cc1 (centres undefined)
/ | / | -0.6 | / | / | 0.0 | i | COc1cccc(C(C)(O)c2nc(-c3ccc(F)c(Cl)c3)cs2)c1 (centres undefined)
0.652 | 1.2 | -3.7 | 22.2% | -0.7 | -2.0 | i | O=C(CC1SC(=NC2CCCCC2)NC1=O)Nc1ccccc1 (centres undefined)
0.701 | -2.8 | -0.2 | / | 2.0 | -0.8 | i | O=C(NCc1ccccn1)Nc1ccccc1F
0.664 | 4.2 | 1.6 | -4.5% | -4.4 | / | / | O=C(c1ccco1)N1CCN(C2=NS(=O)(=O)c3ccccc32)CC1
0.657 | -0.7 | -1.1 | -4.4% | 4.8 | 0.2 | i | CCn1c(C)nnc1SCC(=O)Nc1ccccc1OC
0.675 | 4.5 | 1.2 | -0.7% | -0.7 | / | / | COC(=O)c1ccccc1NC(=O)C1CC(=O)N(c2ccc(C)c(C)c2)C1 (centres undefined)
0.715 | -1.9 | -0.9 | -4.0% | / | -13.0 | i | COCCN(C(=O)COC(=O)Cc1ccc(Cl)cc1Cl)c1c(N)n(Cc2ccccc2)c(=O)[nH]c1=O
0.719 | 1.1 | 1.3 | 7.4% | 3.8 | / | / | CCC(Oc1ccccc1)C(=O)Nc1nc2ccccc2[nH]1 (centres undefined)
0.625 | 6.8 | -2.7 | 4.7% | 6.0 | -12.7 | i | O=C(CSc1ccccc1)Nc1ccc(NC(=O)c2ccco2)cc1
0.696 | 8.5 | 3.3 | ? | -1.3 | / | / | COc1ccc2c(C(=O)CN3CCC(C)CC3)c[nH]c2c1
0.73 | -0.1 | 148.8 | -10.6% | 4.5 | / | / | COCCNC(=O)C(c1ccccc1C)N(CCOC)C(=O)Cn1nnc2ccccc21 (centres undefined)
0.692 | 5.9 | 0.2 | -1.8% | / | -0.4 | i | CN(C(=O)c1cccc(NC(=O)Cc2ccc(NC(=O)C3CCN(C(=O)C4CCCC4)CC3)cc2)c1)C1CCCCC1
0.688 | 3.4 | 4.4 | -10.4% | -2.1 | / | / | CCOCCCNc1nc2c([nH]1)c(=O)n(C)c(=O)n2C
0.701 | 2.7 | 4.2 | -13.6% | / | 1.1 | i | O=C(CCNC(=O)c1ccc([N+](=O)[O-])cc1)Nc1cccc(S(=O)(=O)N2CCOCC2)c1
/ | / | -0.9 | 1.0% | 0.0 | 1.2 | i | Cc1nc2ccccc2c(=O)n1/N=C/c1ccccc1F
0.714 | 1.1 | 0.5 | / | ? | -0.5 | i | COc1ccccc1CNC(=O)Cc1ccc(OC)c(OC)c1
0.682 | -1.5 | -1.1 | / | 2.8 | -2.0 | i | CCOC(=O)c1ccc(S(=O)(=O)NCCN2CCOCC2)cc1
0.649 | -4.0 | -1.4 | 0.4% | -0.2 | 6.3 | i | O=C(CNC(=O)c1ccccc1Cl)NCC(c1cccs1)N1CCOCC1 (centres undefined)
0.656 | 3.2 | -2.1 | 8.5% | 7.1 | / | / | CC(Sc1nncn1C)C(=O)Nc1ccccc1-c1ccccc1 (centres undefined)
0.655 | -4.9 | 3.4 | 11.7% | -6.2 | 2.0 | i | CN1CCC(N(C)C(=S)NC(=O)c2cc(-c3cccc(Br)c3)nc3ccccc23)CC1
0.803 | -6.2 | 3.2 | 3.6% | 4.6 | / | / | CSc1nc(N)c(C#N)c(-c2ccc(Cl)cc2)c1C#N
0.683 | 6.9 | 3.1 | -16.6% | ? | 9.1 | i | COCCn1c(C)c(C)c2c(NCCc3ccccc3)ncnc21
0.68 | 2.6 | -1.2 | 3.0% | -2.8 | -0.7 | i | O=C(CSc1n[nH]c(-c2ccccc2)n1)Nc1ccccc1O
/ | / | -0.8 | 6.6% | / | -0.4 | i | CC1=C(C(=O)N(C)C)CC(CC(=O)NC2CCCCC2)C(=O)N1CCCN1CCCC1=O (centres undefined)
0.675 | 2.4 | -0.4 | / | -0.4 | -2.8 | i | CC(Sc1ccccc1)C(=O)NCC(c1ccco1)N1CCCCC1 (centres undefined)
0.668 | 1.6 | -2.6 | 10.0% | / | -7.6 | i | CCN(C[C@H]1N[C@@](Cc2ccccc2)(C(=O)OC)[C@H]2C(=O)N(C)C(=O)[C@@H]12)S(=O)(=O)c1ccccc1
0.688 | 1.1 | -1.3 | 3.5% | -2.4 | / | / | COC(=O)c1ccc(Cn2nc(C)c(Cl)c2C)o1
0.637 | 0.8 | -1.2 | ? | 5.6 | -0.7 | i | CSCCC(NC(N)=O)C(=O)Nc1ccc(F)c(Cl)c1 (centres undefined)
0.714 | -1.3 | -1.5 | 1.5% | 1.6 | -2.1 | i | CCOCCCNC(=O)CCS(=O)(=O)Cc1ccc(C)cc1
/ | / | 3.6 | -0.9% | / | 1.1 | i | CCOc1ccc(NC(=O)CN(C)C2=NS(=O)(=O)c3ccccc32)cc1
0.709 | 0.2 | 4.0 | 0.5% | -3.6 | / | / | O=C(Oc1ccc2c(c1)OCO2)c1ccc(F)cc1Cl
0.753 | 5.8 | -1.3 | / | / | -2.9 | i | O=C(c1cc(Sc2ccc(Cl)cc2)nc2ccccc12)N1CCN(c2ccccn2)CC1
0.665 | 2.2 | 4.5 | -4.1% | / | -4.8 | i | Cc1cc(C(=O)COC(=O)COc2ccccc2C#N)c(C)n1CC1CCCO1 (centres undefined)
0.676 | 0.7 | 0.7 | -2.5% | 0.9 | -7.0 | i | CCOCCCNC(=O)Cn1cnc2c(cnn2-c2ccc(F)cc2)c1=O
0.812 | 2.7 | -1.7 | / | / | -1.1 | i | CCC/C(=C1/c2ccccc2C(=O)N1c1ccccc1)c1ccc2c(c1)OCO2
0.693 | 0.1 | 0.4 | / | 6.2 | -1.8 | i | Cc1ccc(NC(=O)CCC(=O)c2cccs2)c(Br)c1
0.698 | 3.7 | -1.1 | -1.8% | 2.6 | / | / | C/C=C/Cn1c(Br)nc2c1c(=O)n(C)c(=O)n2C

(next part)
E coli growth | UCH37 inh | HNF4A DNA FP | Vif TR-FRET | RanGTP-Imp inh | AF4-AF9 inh | FGF22 binding | Compound
0.652 | -0.2 | -1.0 | 4.7% | 2.6 | -1.1 | i | Cc1ccccc1OCCCC(=O)NC1CCCCC1
0.633 | 0.3 | 0.8 | / | 1.1 | -0.5 | i | COc1ccc(S(=O)(=O)N2CCCCC2)cc1NC(=O)C1CSC2(C)CCC(=O)N12 (centres undefined)
0.707 | 1.9 | -2.4 | -1.2% | -1.0 | / | / | Cc1c(NC(=O)C(C)OC(=O)CNC(=O)c2ccccc2)c(=O)n(-c2ccccc2)n1C (centres undefined)
0.695 | 6.6 | 2.4 | / | -3.8 | 12.6 | i | CN(C)CCNc1nc2sc3c(c2c(=O)n1Cc1ccccc1)CCCCC3
0.712 | 3.7 | 1.0 | / | -0.7 | 0.8 | i | COc1ccc(OC)c(S(=O)(=O)N2CCC(C(=O)N3CCN(c4ccc(F)cc4)CC3)CC2)c1
0.631 | 7.2 | 3.1 | 0.5% | 1.6 | / | / | C=CCNCCOCCOc1ccc(Cl)cc1C(C)(C)C
0.67 | 1.8 | 4.0 | / | -2.1 | -2.8 | i | Cc1cccc(NC(=S)NCCc2ccc(Cl)cc2)c1C
0.652 | 5.3 | 1.6 | 5.5% | 1.5 | -8.8 | i | Cc1csc(C)[n+]1CC(=O)c1ccccc1
/ | / | -1.3 | -0.9% | -1.0 | / | / | C/C(=N\NC(=O)c1cccc(Br)c1)c1ccc(Br)cc1
0.711 | 4.6 | 0.8 | / | 3.3 | 1.7 | i | COc1ccc(NC(=O)CSc2nccn2Cc2ccco2)c(OC)c1
0.704 | 3.8 | 0.3 | ? | -3.2 | 1.9 | i | CC1Cn2c(nnc2-c2cccc(Cl)c2)S1 (centres undefined)
0.692 | 3.7 | 1.3 | -8.4% | / | -0.2 | i | O=C(COC(=O)c1cc(S(=O)(=O)N2CCOCC2)ccc1F)Nc1c(Cl)cccc1C(F)(F)F
0.727 | -5.0 | -1.9 | 2.3% | 3.7 | / | / | CCN(CC(=O)NC1CCCCCC1)S(=O)(=O)c1ccccc1
0.671 | 0.9 | -0.1 | 7.4% | -0.7 | / | / | C=CCC1(O)C(=O)Nc2ccccc21 (centres undefined)

Some of the compounds tested; rates above refer to the full screens.
